YB-1 expr inh – inhibitors of YB-1 gene expression, primary screen, cell-based, fluorescence | U2OS, qRT-PCR YB-1 vs CDIP delta delta Cp, 16 h; active compounds read high; zero = DMSO, each unit about twofold | delta delta Cp (YB-1 minus CDIP) (test concentration not listed) | 30,000 tested, 0.37% active;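 active = delta delta Cp rounded down to an integer at or above 3, about 3 SD of DMSO wells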;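 also: higher means less YB-1 transcript or more CDIP transcript relative to DMSO; stock transfer was 100 nL into about 100 µL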
Shh pathway inh – Hedgehog pathway signaling inhibitors, primary screen, luminescence, Shh-LIGHT2 cells, Gli-luciferase | inhibition, % (concentration not given with the values) | AID 2313, 2010 | 22,000 tested, 2.1% active | Shh-LIGHT2 Gli-luciferase reporter, 30 h;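 active = replicate mean of 65% or more; inconclusive = mean lower but half the replicates past it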;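 also: pathway switched on by Shh-conditioned medium diluted 1 in 25 in low serum; 100 nL library stock added to about 40 µL; 0% = median of neutral wells and 100% = positive control level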
MITF inhib – inhibitors of MITF, primary screen, MITF inhibitor project, cell-based, luminescence; TRPM1 promoter luciferase, 24 h; inhibition, % (concentration not given with the values); 37,000 tested, 0.28% active; AID 2240, 2010;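 active = most replicates at 85% or more, or half of them and the mean; inconclusive = half reach 85% but not the mean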;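 also: human melanocyte line stably carrying TRPM1 promoter luciferase reporter; 0% = vehicle wells and 100% = a positive control; the first replicate is given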
PD-1 reversal – activators reversing PD-1 mediated T-cell inhibition, primary screen, luminescence, primary human CD4 T cells, PD-L1 beads; CellTiter-Glo 96 h; 29,000 tested, under 10 active; activation, % (test concentration not listed);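 active = replicate mean of 50% or more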;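 also: 0% = median vehicle wells and 100% = positive control; 100 nL library stock added to about 50 µL; numbers are from one replicate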
Numbers without * were called inactive; ? = inconclusive; · = not tested or not shown. These rows are one share of the data. The share of hits here may be higher or lower than overall.

no. | Molecule | YB-1 expr inh | Shh pathway inh
1 | CNC[C@H]1Oc2c(NS(=O)(=O)c3cccs3)cccc2C(=O)N([C@@H](C)CO)C[C@@H]1C | 0.055 | -42
2 | COc1ccc(C(O)CNC(=O)/C=C/c2ccccc2)cc1 (stereo not given) | 0.056 | 32
3 | CCOC(=O)C1=C(C)N(C(=O)Oc2ccccc2)C(SC)=NC1c1ccccc1 (stereo not given) | -0.27 | -33
4 | C[C@H]1CN([C@@H](C)CO)C(=O)c2cc(NC(=O)Cc3ccccc3)ccc2O[C@H]1CN(C)S(=O)(=O)c1cccs1 | 0.49 | -4
5 | C[C@H]1CN([C@@H](C)CO)C(=O)Cc2cc(N(C)C)ccc2O[C@@H]1CN(C)C(=O)Nc1ccc(C(F)(F)F)cc1 | -0.12 | -28
6 | COC(=O)c1cc(NC(=O)CSc2nnc(-c3ccccc3O)n2-c2ccccc2)ccc1Cl | · | ·
7 | COc1ccc(NC(=O)Nc2cccc3c2O[C@H](CN(C)C(=O)Nc2cccc4ccccc24)[C@@H](C)CN([C@H](C)CO)C3=O)cc1 | 0.061 | -6
8 | C[C@H]1CN([C@@H](C)CO)C(=O)c2cccc(NC(=O)C3CCCCC3)c2O[C@H]1CN(C)Cc1ccc(-c2ccccc2)cc1 | 0.36 | 3
9 | O=c1c(-c2ccc(O)cc2)coc2cc(O[C@@H]3O[C@H](CO)[C@@H](O)[C@H](O)[C@H]3O)cc(O)c12 | 0.74 | -25
10 | COc1ccc(NC(=O)N(C)C[C@H]2Oc3c(NC(=O)C4CC4)cccc3C(=O)N([C@@H](C)CO)C[C@@H]2C)cc1 | -0.13 | -26
11 | CCc1ccc(C(=O)Oc2ccc(C#N)cc2)cc1 | 0.0021 | ·
12 | COc1ccc(NC(=O)N(C)C[C@@H]2Oc3ccc(NS(=O)(=O)c4c(C)noc4C)cc3C(=O)N([C@H](C)CO)C[C@@H]2C)cc1 | -0.45 | -30

no. | MITF inhib | PD-1 reversal
1 | -4 | 0.9
2 | 10 | -0.3
3 | -14 | -8.1
4 | -13 | -2.7
5 | -11 | ·
6 | -10 | -0.7
7 | -18 | 1.1
8 | -1 | -0.3
9 | 17 | 0.7
10 | 1 | 1.9
11 | -5 | 0.9
12 | -7 | 0.2

Part of the list above, reformatted:
entry	structure	YB-1 expr inh	Shh pathway inh	MITF inhib	PD-1 reversal
4	C[C@H]1CN([C@@H](C)CO)C(=O)c2cc(NC(=O)Cc3ccccc3)ccc2O[C@H]1CN(C)S(=O)(=O)c1cccs1	0.49	-4	-13	-2.7
5	C[C@H]1CN([C@@H](C)CO)C(=O)Cc2cc(N(C)C)ccc2O[C@@H]1CN(C)C(=O)Nc1ccc(C(F)(F)F)cc1	-0.12	-28	-11	·
6	COC(=O)c1cc(NC(=O)CSc2nnc(-c3ccccc3O)n2-c2ccccc2)ccc1Cl	·	·	-10	-0.7

(list continues)
no. | Molecule | YB-1 expr inh | Shh pathway inh
13 | C[C@H](CO)N1C[C@H](C)[C@@H](CN(C)Cc2ccc(Cl)c(Cl)c2)Oc2ccc(NC(=O)Nc3ccc(F)cc3)cc2C1=O | -0.39 | ·
14 | Cc1nn(C(C)C(=O)Nc2ccc(F)c(Cl)c2)c(C)c1[N+](=O)[O-] (stereo not given) | · | ·
15 | CNC[C@@H]1Oc2c(NC(=O)Nc3ccc(OC)cc3)cccc2C(=O)N([C@H](C)CO)C[C@H]1C | -0.13 | -10
16 | COc1ccc(S(=O)(=O)Nc2ccc3c(c2)CC(=O)N([C@H](C)CO)C[C@H](C)[C@H](CN(C)S(=O)(=O)c2ccc(Cl)cc2)O3)cc1 | -0.022 | 7
17 | Nc1nc(Cl)nc2c1ncn2C1OC(CO)[C@H](O)[C@H]1F (stereo not given in full) | -0.02 | 19
18 | O=C(OCc1ccccc1O[C@@H]1O[C@H](CO)[C@@H](O)[C@H](O)[C@H]1O)c1c(O)cccc1O[C@@H]1O[C@H](CO)[C@@H](O)[C@H](O)[C@H]1O | 0.12 | -6
19 | C[C@H](CO)N1C[C@H](C)[C@@H](CN(C)S(=O)(=O)c2ccccc2)Oc2c(NS(=O)(=O)c3cccs3)cccc2C1=O | 0.17 | -18
20 | CC(C)NC(=O)Nc1cccc2c1O[C@H](CN(C)C(=O)Nc1ccc(F)cc1)[C@@H](C)CN([C@@H](C)CO)C2=O | 0.34 | -24
21 | Cc1ccc(S(=O)(=O)Nc2ccc3c(c2)C(=O)N([C@H](C)CO)C[C@H](C)[C@H](CN(C)Cc2ccc4c(c2)OCO4)O3)cc1 | 0.15 | 9
22 | C=C1[C@@H]2CC[C@H]3[C@]4(C)C[C@H](O)C[C@@H](C(=O)OC)[C@H]4CC[C@]3(C2)[C@H]1O | 0.2 | -21
23 | C[C@H](CO)N1C[C@H](C)[C@H](CN(C)S(=O)(=O)c2cn(C)cn2)Oc2ccc(NS(=O)(=O)c3cccs3)cc2CC1=O | 0.18 | 0
24 | CCc1c(C)n([O-])c2c([n+]1=O)CCCCC2 | 6.4* | 1

no. | MITF inhib | PD-1 reversal
13 | 40 | -5.2
14 | 2 | -1.7
15 | -10 | ·
16 | 2 | ·
17 | 29 | -20
18 | 5 | 0.2
19 | -8 | ·
20 | -7 | 0.1
21 | -7 | 0.1
22 | 16 | -1.2
23 | -10 | 0.8
24 | -15 | 0.1

Next records
no. | Molecule | YB-1 expr inh | Shh pathway inh
25 | C[C@@H]1CCCCO[C@@H](CN(C)C(=O)Nc2ccc3c(c2)OCO3)[C@@H](C)CN([C@H](C)CO)C(=O)c2cc(N(C)C)ccc2O1 | -0.06 | ?
26 | C[C@@H]1CN([C@H](C)CO)C(=O)c2cccc(NC(=O)C3CCCCC3)c2O[C@H]1CN(C)Cc1ccc(C(F)(F)F)cc1 | -0.062 | 11
27 | CC(C)NC(=O)Nc1cccc2c1O[C@H](CN(C)Cc1ccc(Cl)c(Cl)c1)[C@@H](C)CN([C@@H](C)CO)C2=O | 0.095 | 23
28 | C[C@H]1CN([C@@H](C)CO)C(=O)c2cc(NC(=O)c3ccncc3)ccc2O[C@@H]1CN(C)Cc1ccc2c(c1)OCO2 | 0.11 | 10
29 | C[C@@H]1CN([C@H](C)CO)C(=O)Cc2cc(NC(=O)Nc3ccc(C(F)(F)F)cc3)ccc2O[C@H]1CN(C)Cc1ccccc1 | 0.03 | 16
30 | C[C@@H]1CN([C@@H](C)CO)C(=O)c2cc(NC(=O)Cc3ccccc3)ccc2O[C@@H]1CN(C)C(=O)Nc1cccc2ccccc12 | 0.036 | -1
31 | Cc1ncc([N+](=O)[O-])n1CC(=O)Nc1ccc(F)cc1 | · | ·
32 | C[C@H]1CN([C@@H](C)CO)C(=O)c2cc(NC(=O)c3ccncc3)ccc2O[C@@H]1CN(C)Cc1ccc(Oc2ccccc2)cc1 | -1.1 | 28
33 | COc1cccc(N(CC(=O)O)S(=O)(=O)c2ccccc2)c1 | · | ·
34 | COc1ccc(S(=O)(=O)N(C)C[C@H]2Oc3ccc(NS(=O)(=O)c4cccs4)cc3CC(=O)N([C@@H](C)CO)C[C@@H]2C)cc1 | 0.024 | -10
35 | C[C@H]1CN([C@@H](C)CO)C(=O)Cc2cc(NC(=O)Nc3ccccc3)ccc2O[C@@H]1CN(C)S(=O)(=O)c1ccc(F)cc1 | -0.18 | ·
36 | C[C@@H]1CCCCO[C@H](CN(C)C(=O)c2ccncc2)[C@@H](C)CN([C@H](C)CO)C(=O)c2cc(NC(=O)Cc3ccccc3)ccc2O1 | -0.25 | -44

no. | MITF inhib | PD-1 reversal
25 | -7 | ·
26 | 64 | -6.0
27 | -12 | -2.8
28 | 3 | -0.2
29 | 12 | -4.2
30 | 1 | -0.7
31 | -1 | 2.1
32 | 6 | 0.8
33 | -7 | 0.2
34 | 2 | ·
35 | 3 | 0.1
36 | -1 | ·

The list goes on:
no. | Molecule | YB-1 expr inh | Shh pathway inh
37 | Cc1ccc(S(=O)(=O)Nc2ccc3c(c2)CC(=O)N([C@@H](C)CO)C[C@@H](C)[C@@H](CN(C)Cc2ccc(Cl)c(Cl)c2)O3)cc1 | 0.64 | -8
38 | CNC[C@H]1Oc2ccc(NC(=O)C3CC3)cc2CC(=O)N([C@@H](C)CO)C[C@H]1C | 0.24 | -3
39 | Cc1ccc(C)c(OCC(=O)Nc2cccc(-c3nnc(-c4ccco4)o3)c2)c1 | · | ·
40 | Cc1ccnc(NC(c2cccc(Br)c2)c2ccc3ccc(C)nc3c2O)c1 (stereo not given) | · | ·
41 | Clc1ccc(CCC(Cn2ccnc2)Sc2c(Cl)cccc2Cl)cc1 (stereo not given) | -0.047 | 15
42 | Cc1nc(SCC(=O)NCC2CCCO2)c2c3c(sc2n1)CCC3 (stereo not given) | · | ·
43 | COc1ccc(CN(C)C[C@H]2Oc3ccc(NC(=O)Nc4ccc5c(c4)OCO5)cc3C(=O)N([C@H](C)CO)C[C@H]2C)cc1 | 0.43 | -5
44 | C[C@H]1CN([C@@H](C)CO)C(=O)Cc2cc(NC(=O)Cc3cn(C)c4ccccc34)ccc2O[C@@H]1CN(C)C(=O)Nc1ccc2c(c1)OCO2 | 0.12 | -1
45 | C[C@@H]1CN([C@H](C)CO)C(=O)Cc2cc(NC(=O)Nc3ccccc3)ccc2O[C@H]1CN(C)Cc1ccc(Oc2ccccc2)cc1 | 0.091 | -3
46 | COc1cc(C)c(Cl)c(C)c1S(=O)(=O)NC1CC(C)(C)NC(C)(C)C1 | · | ·
47 | C[C@@H]1CN([C@H](C)CO)C(=O)c2cc(NS(C)(=O)=O)ccc2O[C@@H]1CN(C)S(=O)(=O)c1cn(C)cn1 | -0.022 | ·
48 | C[C@H](CO)N1C[C@H](C)[C@@H](CN(C)C(=O)Nc2ccc3c(c2)OCO3)Oc2c(NS(=O)(=O)c3ccc(Cl)cc3)cccc2C1=O | 0.44 | -19

no. | MITF inhib | PD-1 reversal
37 | 23 | -2.8
38 | 6 | 1.6
39 | -75 | 0.3
40 | 20 | -11
41 | -4 | ·
42 | 12 | -0.9
43 | 6 | ·
44 | -2 | 2.6
45 | 6 | 2.7
46 | 2 | 1.5
47 | -6 | 2.0
48 | -1 | 1.1

(listing goes on)
no. | Molecule | YB-1 expr inh | Shh pathway inh
49 | CC(=O)O[C@@H]1CC2C(C)(C)C(=O)C=C[C@]2(C)C2CC[C@@]3(C)[C@H](c4ccoc4)OC(=O)[C@H]4O[C@]43[C@@]21C (stereo not given in full) | -0.29 | 54
50 | C[C@@H]1CN([C@@H](C)CO)C(=O)c2cccc(NC(=O)Nc3ccccc3)c2O[C@@H]1CN(C)C(=O)Nc1ccc(C(F)(F)F)cc1 | -0.46 | 5
51 | Cc1ccc(O)c(NC(=O)CCN2C(=O)c3ccccc3C2=O)c1 | · | ·
52 | C[C@@H]1CN([C@H](C)CO)C(=O)c2cccc(NC(=O)c3cnccn3)c2O[C@@H]1CN(C)Cc1ccc(C(=O)Nc2ccccc2N)cc1 | -0.44 | ·
53 | Cc1ccc(CC2C(=O)N(c3cccc(C(F)(F)F)c3)C(=O)C2C)cc1 (stereo not given) | 0.14 | ·
54 | C[C@H](CO)N1C[C@H](C)[C@@H](CN(C)CC2CCCCC2)Oc2ccc(NC(=O)Cn3cnnn3)cc2C1=O | -0.27 | ·
55 | COc1cccc(NC(=O)CNC(=O)c2ccc([N+](=O)[O-])cc2)c1 | · | ·
56 | C[C@H](CO)N1C[C@H](C)[C@@H](CN(C)S(=O)(=O)c2ccccc2)Oc2c(NS(=O)(=O)c3ccc(F)cc3)cccc2C1=O | -0.12 | -17
57 | Cn1c(=O)c2c(ncn2CC(=O)N2CCN(C(=O)c3ccco3)CC2)n(C)c1=O | · | ·
58 | C[C@@H]1CN([C@@H](C)CO)C(=O)c2cc(NS(C)(=O)=O)ccc2O[C@H]1CN(C)Cc1ccc(-c2ccccc2)cc1 | 0.28 | 18
59 | Fc1ccccc1CSc1nnc(-c2cccnc2)n1Cc1ccco1 | · | ·
60 | C[C@H]1CN([C@@H](C)CO)C(=O)Cc2cc(NC(=O)Cc3cn(C)c4ccccc34)ccc2O[C@@H]1CN(C)CC1CCCCC1 | -0.074 | 1

no. | MITF inhib | PD-1 reversal
49 | 12 | ·
50 | 2 | ·
51 | -14 | -0.5
52 | 24 | -0.4
53 | -1 | 1.5
54 | 9 | -0.8
55 | 10 | 1.5
56 | 7 | -0.9
57 | -20 | 0.9
58 | 2 | -1.2
59 | -32 | -0.9
60 | 24 | -1.0

(more compounds)
no. | Molecule | YB-1 expr inh | Shh pathway inh
61 | Cc1noc(C)c1NC(=O)N(C)C[C@@H]1Oc2ccc(NC(=O)Cn3cnnn3)cc2C(=O)N([C@@H](C)CO)C[C@@H]1C | 0.14 | -20
62 | Cc1cc(C)nc(SCCCn2c(=O)[nH]c3ccccc32)n1 | · | ·
63 | CCOC(=O)CCSc1nnc2c3ccccc3n(C)c2n1 | · | ·
64 | Cc1cccc(N2C(=O)c3ccc(C(=O)Nc4c[nH]c(=O)[nH]c4=O)cc3C2=O)c1C | -0.038 | -15

no. | MITF inhib | PD-1 reversal
61 | -7 | 2.3
62 | -8 | 0.7
63 | 51 | -0.8
64 | -27 | 0.5

Assay outcomes (PubChem BioAssay)
